Yeast superoxide – yeast age-related superoxide inhibition as caloric restriction mimetic; superoxide response (% of plate mean), % at 10 µM; S. cerevisiae aged cells, superoxide DHE fluorescence; hits give low values; actives 0.18% (n = 330,000);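 active = superoxide response under a set limit, about three screen SD below normal, cut at about 65% in these data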;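 also: yeast aged for seven days with compound at 30 °C before DHE staining; 100% = average MFI of all compound-treated wells on the plate with controls excluded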
RPL19A-GFP yeast – yeast TOR pathway RPL19A-GFP modulation. S. cerevisiae RPL19A-GFP strain, flow cytometry, 3 h; hits give low values. percent response vs DMSO, % at 10 µM. actives 0.3% (n = 330,000);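 active = percent response vs DMSO below 50%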;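 also: median channel GFP fluorescence of the barcoded RPL19A-GFP strain; ratio of sample median GFP to plate DMSO average so 100% = DMSO; lower means less RPL19A-GFP as with rapamycin TOR inhibition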
MEP2-GFP yeast – yeast TOR pathway MEP2-GFP modulation | S. cerevisiae MEP2-GFP strain, flow cytometry GFP, 3 h; 100% = DMSO control level | GFP response vs DMSO, % at 10 µM | actives 0.51% (n = 330,000);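 active = GFP response versus DMSO above a set limit, roughly screen mean plus 3 SD, cut at about 180% in these data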;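 also: median GFP fluorescence of the barcode-gated MEP2-GFP cells per well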
CIT2-GFP yeast – yeast TOR pathway CIT2-GFP modulation. S. cerevisiae CIT2-GFP strain, flow cytometry, 3 h; 100 means same as DMSO wells. GFP response vs DMSO, % at 10 µM. actives 0.065% (n = 320,000);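 active = GFP response relative to DMSO above a set limit, near the screen mean plus 3 SD, cut at about 150% in these data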;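 also: ratio of well median GFP fluorescence to mean of DMSO wells on the plate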
AGP1-GFP MLPCN – modulators of TOR pathway AGP1-GFP in S. cerevisiae. actives 0.02% (n = 320,000). GFP response vs DMSO, % at 10 µM. S. cerevisiae AGP1-GFP multiplex flow cytometry, 3 h; GFP as percent of DMSO wells;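 active = GFP response relative to DMSO above a set limit, near screen average plus 3 SD, cut at about 150% in these data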;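 also: median GFP channel fluorescence of the gated AGP1 strain per well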
LAP4-GFP MLPCN – alters LAP4-GFP fluorescence in TOR pathway yeast screen | S. cerevisiae LAP4-GFP multiplex, flow cytometry GFP, 3 h; median GFP as percent of DMSO wells | GFP response vs DMSO, % at 10 µM | actives 0.34% (n = 320,000);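 active = GFP response vs DMSO above a set limit, about the screen mean plus 3 SD, cut at about 150% in these data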
The depositor's hits bear a star; & = joins results of further samples. Not all compounds are listed (hit frequency here may not be typical).

1. CNCC[C@H](Oc1ccc(C(F)(F)F)cc1)c1ccccc1
2. C[C@]12CCC(=O)C[C@H]1CC[C@@H]1[C@@H]2CC[C@]2(C)[C@@H](O)CC[C@@H]12
3. CC/C(=C(\c1ccccc1)c1ccc(OCCN(C)C)cc1)c1ccccc1
4. O=C(NCNC(=O)NC1C(=O)NC(=O)N1CO)NC1C(=O)NC(=O)N1CO (stereo unspecified)
5. O=C(O)C(Cl)(Cl)Cl
6. Nc1ccc([N+](=O)[O-])cc1
7. C[N+]1(C)C2CC(OC(=O)C(CO)c3ccccc3)CC1C1OC12 (stereo unspecified)
8. CNC(C)Cc1ccccc1 (stereo unspecified)
9. C[C@]12CCC(=O)C[C@@H]1CC[C@@H]1[C@@H]2CC[C@]2(C)[C@@H](O)CC[C@@H]12

| assay / compound | 1 | 2 | 3 | 4 | 5 | 6 | 7 | 8 | 9 |
| --- | --- | --- | --- | --- | --- | --- | --- | --- | --- |
| Yeast superoxide | 89 | 73 | 100&95 | 109 | 100 | 116 | 108 | 100 | 54* |
| RPL19A-GFP yeast | 96 | 96 | 99&102 | 95 | 103 | 100 | 102 | 106 | 95 |
| MEP2-GFP yeast | 95 | 102 | 99&102 | 96 | 105 | 95 | 99 | 108 | 100 |
| CIT2-GFP yeast | 80 | 88 | 82&84 | 80 | 82 | 92 | 86 | 105 | 83 |
| AGP1-GFP MLPCN | 86 | 92 | 87&96 | 85 | 93 | 94 | 90 | 108 | 93 |
| LAP4-GFP MLPCN | 106 | 113 | 105&97 | 100 | 108 | 106 | 127 | 123 | 124 |

Profiles, quoted from the list. Screens in order: Yeast superoxide, RPL19A-GFP yeast, MEP2-GFP yeast, CIT2-GFP yeast, AGP1-GFP MLPCN, LAP4-GFP MLPCN
`O=C(O)C(Cl)(Cl)Cl` in the list: 100, 103, 105, 82, 93, 108
`CNC(C)Cc1ccccc1` (stereo unspecified) in the list: 100, 106, 108, 105, 108, 123

Sorted by heavy-atom count (high to low): some entries from above
4. O=C(NCNC(=O)NC1C(=O)NC(=O)N1CO)NC1C(=O)NC(=O)N1CO (stereo unspecified)
7. C[N+]1(C)C2CC(OC(=O)C(CO)c3ccccc3)CC1C1OC12 (stereo unspecified)
1. CNCC[C@H](Oc1ccc(C(F)(F)F)cc1)c1ccccc1
6. Nc1ccc([N+](=O)[O-])cc1

| assay / compound | 4 | 7 | 1 | 6 |
| --- | --- | --- | --- | --- |
| Yeast superoxide | 109 | 108 | 89 | 116 |
| RPL19A-GFP yeast | 95 | 102 | 96 | 100 |
| MEP2-GFP yeast | 96 | 99 | 95 | 95 |
| CIT2-GFP yeast | 80 | 86 | 80 | 92 |
| AGP1-GFP MLPCN | 85 | 90 | 86 | 94 |
| LAP4-GFP MLPCN | 100 | 127 | 106 | 106 |

Compound activity deposited in PubChem by NMMLSC.
